RanGTP-Imp inh – inhibitors of RanGTP-importin-beta interaction, primary screen, biochemical, FRET, CFP-Ran, YFP-importin-beta, homogeneous; Ran GTPase (GTP-bound) - importin-beta complex; cell-free CFP-Ran/YFP-importin-beta FRET ratio; inhibition, % (no concentration beside the values); actives 1.1% (n = 300,000);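 active = most replicates above 15%; inconclusive = exactly half above 15%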;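 note: 0% = DMSO wells and 100% = Ran loaded with GDP instead of GTP; wells of about 40 µL received 100 nL stock; the first replicate is given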
LANA-H2A inh – blockers of LANA interaction with H2A/H2B – biochemical, FP readout, HTS, primary screen. Protein LANA1 (Human herpesvirus 8 type P (isolate GK18)), Q9QR71. cell-free LANA-H2A/H2B peptide, fluorescence polarization. inhibition, % (no concentration beside the values). actives 0.6% (n = 320,000). AID 2629, 2010; in the data active = inhibition mostly above about 10%, no sharp cut-off; inactive = mostly below about 6.7%;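 note: stock transfer was 7.5 nL into about 10 µL; 0% = median of vehicle wells and 100% = median of positive control wells; one replicate is shown; the record names a cut of 25% in any replicate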
Target sequence (Q9QR71 whole entry, looked up): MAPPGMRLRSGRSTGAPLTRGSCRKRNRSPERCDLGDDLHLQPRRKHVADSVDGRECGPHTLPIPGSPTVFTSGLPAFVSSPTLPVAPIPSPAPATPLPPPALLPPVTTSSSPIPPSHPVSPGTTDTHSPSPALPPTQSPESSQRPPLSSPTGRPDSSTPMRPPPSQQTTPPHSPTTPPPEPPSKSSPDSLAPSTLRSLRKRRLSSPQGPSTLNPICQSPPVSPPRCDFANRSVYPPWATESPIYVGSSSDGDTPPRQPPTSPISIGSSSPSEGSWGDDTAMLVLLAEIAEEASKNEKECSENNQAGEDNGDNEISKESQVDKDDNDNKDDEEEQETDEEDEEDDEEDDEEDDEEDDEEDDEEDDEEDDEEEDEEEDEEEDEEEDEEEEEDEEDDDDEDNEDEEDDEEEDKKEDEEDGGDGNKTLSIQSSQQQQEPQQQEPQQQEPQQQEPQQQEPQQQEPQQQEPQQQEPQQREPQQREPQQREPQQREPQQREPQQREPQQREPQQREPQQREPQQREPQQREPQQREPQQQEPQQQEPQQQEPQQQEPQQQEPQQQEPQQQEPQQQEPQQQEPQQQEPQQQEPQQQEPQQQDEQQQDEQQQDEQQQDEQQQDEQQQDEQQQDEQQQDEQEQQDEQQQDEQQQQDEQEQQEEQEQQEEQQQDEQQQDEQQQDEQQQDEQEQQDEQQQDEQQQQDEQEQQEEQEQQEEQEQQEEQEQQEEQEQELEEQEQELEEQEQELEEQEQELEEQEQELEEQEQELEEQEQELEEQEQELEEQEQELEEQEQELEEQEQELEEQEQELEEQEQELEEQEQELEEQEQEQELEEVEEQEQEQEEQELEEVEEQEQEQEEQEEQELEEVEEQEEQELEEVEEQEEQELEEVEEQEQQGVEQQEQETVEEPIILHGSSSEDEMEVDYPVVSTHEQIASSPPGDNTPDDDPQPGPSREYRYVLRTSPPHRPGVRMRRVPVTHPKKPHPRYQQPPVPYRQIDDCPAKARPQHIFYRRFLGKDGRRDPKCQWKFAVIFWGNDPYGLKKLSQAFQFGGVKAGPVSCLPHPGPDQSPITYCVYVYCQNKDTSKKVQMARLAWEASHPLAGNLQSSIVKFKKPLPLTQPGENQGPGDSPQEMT
T cruzi repl – inhibitors of intracellular T. cruzi growth, primary screen, luminescence, NIH3T3 host cells. inhibition, % (concentration not given with the values). T. cruzi beta-gal in NIH3T3, 90 h. actives 1.4% (n = 300,000). AID 1885, 2009;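 active = mean inhibition across valid replicates above about 55%, limit read from the data; inconclusive = mean below that limit but half or more replicates reach it; inactive = mean below it, under half of replicates reach it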;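 note: signal also drops with host cell toxicity which is not excluded here; 0% = plate median of DMSO wells and 100% = zero luminescence signal; higher percent means less beta-gal luminescence so fewer parasites; stock transfer was 50 nL into about 50 µL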
MLL AF4-AF9 inh – inhibitors of AF4 peptide binding to AF9, primary screen, biochemical, AlphaScreen, biotin-AF4 peptide, FLAG-AF9, single point; Protein AF-9 (Homo sapiens), P42568; actives 0.47% (n = 350,000); inhibition, % at 10 µM;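 active = every replicate reaching a set inhibition limit, whatever the replicate mean, cut at about 25% in these data; inconclusive = mean inhibition reaches that limit but some replicates miss it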;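 note: 0% = plate neutral control median and 100% = total signal loss; the record names both 10 and 1 µM as test concentration; the first replicate is given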
Calb FLC – C. albicans growth inhibition with fluconazole, primary screen, CaCi-2 strain, Alamar Blue fluorescence | C. albicans CaCi-2 (fluconazole-resistant clinical isolate) + fluconazole, 48 h | growth inhibition, % (concentration not given with the values) | actives 0.57% (n = 300,000) | AID 1979, 2009;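 active = most replicates above 75%; inconclusive = exactly half above 75%; inactive = most below 75%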;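 note: all wells also contain fluconazole at 8 µg/ml as a sub-toxic cotreatment; 0% = median of DMSO wells and 100% = median of geldanamycin control wells; wells of about 8 µL received 7.5 nL stock; the first replicate is given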
A1 inh – caspase 3/7 activation in MEF A1-2A-BIM cells, primary screen, A1 inhibitor project, cell-based, luminescence, HTS | caspase activation, % (test concentration not listed) | actives 0.066% (n = 330,000) | AID 2462, 2010 | Caspase-Glo 3/7 luminescence, 3 h; percent of clofoctol response, vehicle zero;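 active = over half of replicate activation scores above 10%, or exactly half above 10 with the replicate mean above 10; inconclusive = replicate mean below 10 yet half the replicates above 10; inactive = over half of replicates below 10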;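 note: wells of about 30 µL received 50 nL stock; many hits fall short of the cut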
Beta cell apopt – inhibitors of cytokine-induced beta cell apoptosis, primary screen, luminescence; protection from apoptosis, % (test concentration not listed); AID 435005, 2010; INS-1E cytokine-induced death, ATP luminescence, 48 h; percent of positive-control rescue, neutral wells zero; actives 0.8% (n = 300,000);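 active = all replicates at 75% or more, or half of them and the mean; inconclusive = half reach 75% but not the mean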;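 note: 0% = cytokine-treated negative control wells and 100% = positive control rescue; higher means more ATP so stronger rescue from cytokine killing; wells of about 40 µL received 100 nL stock; the first replicate is given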
Vif TR-FRET – inhibitors of Vif binding to APOBEC3G peptide, primary screen, biochemical, TR-FRET, GST-Vif 1-94, biotin-A3G peptide, dose response retest (AID 1117319) | TR-FRET GST-Vif / biotin-A3G peptide binding; higher % means a stronger effect; test concentration not given here; strong numbers were not always called active | inhibition, %; hits with a dose series show IC50 in µM | actives 0.57% (n = 260,000);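 active = above the screen mean plus three standard deviations and confirmed in dose response; inconclusive = results disagree or hit not tested in dose response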;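 note: Vif residues 1-94 fused to GST binding biotinylated APOBEC3G peptide 110-148; 0% = full assay without inhibitor and 100% = GST in place of GST-Vif; retest series ran down from 100 µM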
Active calls of the source: *; ? = inconclusive; . = no result given; & = joins results of further samples.

compound	RanGTP-Imp inh	LANA-H2A inh	T cruzi repl	MLL AF4-AF9 inh	Calb FLC	A1 inh	Beta cell apopt	Vif TR-FRET
CN(C)c1nc(OCCNC(=O)Nc2ccccc2)nc(N2CCCCC2)n1	?	7.9	1	1.9	2	-0.3	-2	-7%
COc1ccccc1NC(=S)NC1CCCC1	-2.2	1.0	-22	-5.1	-1	0.4	-6	.
CCCC(=O)Nc1ccc(C(=O)O)cc1NC(=O)CCC	-0.6	-7.3	-14	.	-3	0.1	-2	-5%
O=C(CSc1nc2ccccc2c(=O)n1CC1CCCCC1)N1CCOCC1	-0.4	-0.1	5	.	6	-1.2	7	4%
CCOC(=O)C1(CCc2ccccc2)CCN(C(=O)CCn2cncn2)CC1	0.1	-2.4	-7	-0.2	36	0.0	1	5%
CCN1CCN(c2ccc(NC(=O)c3ccc4c(c3)OCO4)cc2)CC1	2.1	0.8	0	.	3	-2.0	-20	12%
CCN(Cc1ccccc1)S(=O)(=O)c1ccc(C(=O)N(CCCN(C)C)c2nc3cc(OC)ccc3s2)cc1	0.7	-3.3	52	21	-1	0.0	5	1%
COc1ccc(/C=C/C(=O)OCC(=O)NCc2ccccc2)cc1OC	.	1.9	.	0.9	.	0.2	-4	2%
O=C(Nc1nccs1)C1CCN(S(=O)(=O)c2ccc(Cl)c(C(F)(F)F)c2)CC1	0.5	-1.6	2	.	-3	-0.1	14	18%
CCNc1nc(NCC)n2c(SCC(=O)Nc3ccccc3OC(F)F)nnc2n1	.	1.9	.	-2.4	.	0.2	0	-4%
CSc1nc(N)nc2c1ncn2CC(=O)N[C@H](CO)Cc1c[nH]c2ccccc12	.	3.0	.	-0.5	.	0.9	-1	-1%
FC(F)(F)c1cc(-c2ccccn2)nc2cc(-c3ccccc3)nn12	-1.5	3.9	0	1.0	-3	0.5	1	8%
c1ccc(-n2cnc3cc(NCc4ccco4)ccc32)cc1	2.7	-4.0	16	3.6	15	-0.7	6	.
O=[N+]([O-])c1ccccc1/C=N/n1c(C(F)(F)F)n[nH]c1=S	-2.4	1.3	-3	-6.6	46	0.5	3	-2%
CCc1nc(SCC(=O)Nc2ccccc2OC)n[nH]1	-6.8	6.0	-4	-0.1	5	-1.1	-1	.
C=CCn1c(SCC(=O)C(C)(C)C)nnc1-c1ccccn1	?	1.3	-6	.	-16	-0.5	-5	11%
CN(C)C(CNC(C(=O)Nc1ccc(F)cc1)c1ccccc1)c1ccccc1 (stereo not drawn)	5.0	-2.2	41	3.4	-1	0.4	-5	.
N#Cc1nc(-c2ccccc2F)oc1N1CCN(C(=O)c2ccco2)CC1	6.0	1.0	-1	-2.4	-8	0.4	.	.
Cc1cccc(C(=O)N/N=C/c2ccc[nH]2)c1	0.5	0.4	-10	-1.0	1	-0.4	-2	2%
CCOC(=O)CSc1nnc(-c2cccs2)n1-c1ccccc1	2.8	-0.5	-7	.	18	-0.2	-2	3%
CCc1ccc(S(=O)(=O)Nc2ccc(C)c(NS(C)(=O)=O)c2)cc1	2.3	0.3	-6	-3.1	0	-0.8	3	-9%
CN(C(=O)c1ccccc1)C1(C)CCS(=O)(=O)C1 (stereo not drawn)	6.6	-8.6	-6	.	-3	0.7	2	-3%
Cc1ccc(CNS(=O)(=O)c2cc3c(cc2C)NC(=O)CO3)cc1	3.4	7.4	6	2.2	-6	0.0	0	.
O=C(CCN1C(=O)C2C3C=CC(C3)C2C1=O)N1CCN(c2ccc([N+](=O)[O-])cc2)CC1 (stereo not drawn)	.	-1.1	16	1.9	4	0.6	-4	3%
CSc1nc2ccsc2c(=O)n1-c1cccnc1	-2.0	3.1	8	1.2	-3	0.0	-2	.
CCOC(=O)/C(C#N)=C/c1cccc(F)c1	0.6	-1.3	-10	-0.2	-6	0.5	-7	15%
Nc1nccnc1C(=O)OCC(=O)C12CC3CC(CC(C3)C1)C2	3.1	-0.9	-12	5.2	-4	0.0	-8	-1%
CCCC(=O)N1CCN(c2ccc(NC(=S)NC(=O)CC)cc2)CC1	5.2	5.1	-10	.	3	0.3	2	4%
COc1cc2c(-c3ccc4cc[nH]c4c3)c(-c3ccsc3)oc(=O)c2cc1OC	.	3.1	.	3.9	.	0.4	2	.
N#Cc1sc2nccc(Nc3ccccc3)c2c1N	0.7	0.0	0	-1.1	-5	0.2	-16	.
COc1ccc(OC)c(/C=N/NC(=O)CCCC(=O)Nc2cccc(Br)c2)c1	?	-0.6	-4	-0.5	-4	-0.7	-3	10%
Cc1cccc(CSC2=NCCN2C(=O)c2ccc(Br)o2)c1	-0.3	-4.0	11	2.6	0	0.5	-5	-3%
COc1cc(C=O)ccc1OS(=O)(=O)c1ccc(NC(C)=O)cc1	-5.5	-2.7	-1	5.3	-2	1.0	-1	.
CCc1ccc2nc(SCC(=O)N3CCCCC3)c(C#N)cc2c1	0.4	-5.0	30	.	16	-0.4	-2	-11%
COc1ccccc1CNC(=O)c1ccc2c(c1)OCO2	-2.8	-3.4	3	-2.1	4	0.1	1	.
COCCNC(=O)c1noc2c1CCc1cc(OC)ccc1-2	-0.4	-5.4	12	.	?	0.3	10	-1%
COc1ccc(C(=O)Nc2cccc(NC(=O)c3cccs3)c2)cc1OC	4.3	-0.1	-2	-2.8	12	0.5	4	.
CCOC(=O)c1cc(S(=O)(=O)N2CCN(C3CCCCC3)CC2)cn1C	-0.8	3.8	-9	-0.3	-4	-0.1	-5	.
O=C(NN1C(=O)C2C3C=CC([C@@H]2C1=O)C31CC1)c1ccccc1 (stereo partly drawn)	-0.7	-2.6	34	-0.1	5	0.5	-5	.
CCc1ccc(N2CC(C(=O)Nc3cc(C)on3)CC2=O)cc1 (stereo not drawn)	0.7	1.8	-8	-6.0	-3	1.3	-2	4%
O=C(c1ccc2c(=O)n(Cc3ccc(Cl)cc3)c(=S)[nH]c2c1)N1CCOCC1	1.7	1.6	-27	3.0	-3	-1.2	6	.
Cn1cc(CC(=O)Nc2cccc(C#N)c2)c2ccccc21	4.0	.	1	.	-11	0.5	2	-1%
CSc1ccccc1NC(=O)c1c(Br)cnn1C	2.7	-0.7	-1	.	-2	2.7	-1	-3%&-3%
CN(C)C(CNC(=O)c1ccc2nc[nH]c2c1)c1ccccc1 (stereo not drawn)	0.0	-5.8	-6	-2.3	-4	0.5	-3	0%
COc1cc(NCc2ccccc2)c2ncn(Cc3ccccc3)c2c1	.	-0.3	.	-16	.	-2.2	5	.

An excerpt of these results, with two lines to a compound.
Screens in order: RanGTP-Imp inh	LANA-H2A inh	T cruzi repl	MLL AF4-AF9 inh	Calb FLC	A1 inh	Beta cell apopt	Vif TR-FRET
> COc1ccc(OC)c(/C=N/NC(=O)CCCC(=O)Nc2cccc(Br)c2)c1
    ?	-0.6	-4	-0.5	-4	-0.7	-3	10%
> Cc1cccc(CSC2=NCCN2C(=O)c2ccc(Br)o2)c1
    -0.3	-4.0	11	2.6	0	0.5	-5	-3%
> COc1cc(C=O)ccc1OS(=O)(=O)c1ccc(NC(C)=O)cc1
    -5.5	-2.7	-1	5.3	-2	1.0	-1	.
> CCc1ccc2nc(SCC(=O)N3CCCCC3)c(C#N)cc2c1
    0.4	-5.0	30	.	16	-0.4	-2	-11%
> COc1ccccc1CNC(=O)c1ccc2c(c1)OCO2
    -2.8	-3.4	3	-2.1	4	0.1	1	.
> COCCNC(=O)c1noc2c1CCc1cc(OC)ccc1-2
    -0.4	-5.4	12	.	?	0.3	10	-1%
> COc1ccc(C(=O)Nc2cccc(NC(=O)c3cccs3)c2)cc1OC
    4.3	-0.1	-2	-2.8	12	0.5	4	.
> CCOC(=O)c1cc(S(=O)(=O)N2CCN(C3CCCCC3)CC2)cn1C
    -0.8	3.8	-9	-0.3	-4	-0.1	-5	.
> O=C(NN1C(=O)C2C3C=CC([C@@H]2C1=O)C31CC1)c1ccccc1 (stereo partly drawn)
    -0.7	-2.6	34	-0.1	5	0.5	-5	.

Next section.
compound	RanGTP-Imp inh	LANA-H2A inh	T cruzi repl	MLL AF4-AF9 inh	Calb FLC	A1 inh	Beta cell apopt	Vif TR-FRET
CCCCN(C)C(=O)CS(=O)(=O)Cc1nc(-c2cccc(OC)c2)oc1C	6.1	-6.6	-2	-7.3	30	.	-1	2%
COc1ccc(CCN2CC(C(=O)NCCc3ccc(C)cc3)CC2=O)cc1OC (stereo not drawn)	2.3	7.5	-4	1.6	-3	1.7	-4	23%
Cc1cccc(CSc2nc3c(c(-c4cccs4)c2C#N)CN(C)CC3)c1	-7.7	-5.4	58*	9.1	-6	-0.8	.	.
Cc1nn(-c2ccccc2)c(-c2ccccc2)c1C(=O)O	3.1	-1.5	-14	.	-10	-0.5	-11	2%
CC1(C)CN(c2ccc(C(=O)c3ccccc3)cc2)C1=O	0.8	-4.4	-1	0.0	-12	0.5	.	-10%
CN(C(=O)CSc1nc2sc3c(c2c(=O)n1C)CCC3)C1CCS(=O)(=O)C1 (stereo not drawn)	.	-0.6	.	-1.7	.	-0.9	13	.
CCOc1ccc(CN(C)C(=O)c2ccc(S(=O)(=O)N(C)c3ccccc3OC)cc2)cc1	.	2.7	.	0.8	.	0.2	1	.
C[N+]1(C)CCC(=C2c3ccccc3CC(=O)c3sccc32)CC1	-2.8	1.7	0	.	18	0.5	-14	3%&3%
O=C(COc1ccccc1)NCC1(N2CCCCC2)CCCCC1	2.2	-2.0	1	1.4	-14	0.3	-3	2%
CC1CCCCN1C(=O)CSCC(=O)Nc1nc(-c2cccs2)cs1 (stereo not drawn)	0.0	-2.2	-14	1.6	2	-0.2	2	0%
Cc1ccc(C(=O)NC2CC3CCCC(C2)N3C(=O)NC2CCCCC2)cc1 (stereo not drawn)	2.6	.	-9	.	-9	.	.	-1%
Cc1cc(C)cc(OCC(=O)Nc2nonc2NC(=O)COc2cc(C)cc(C)c2)c1	3.0	0.2	-11	.	14	-0.9	-2	6%
COC(=O)c1ccc(CNCC(=O)Nc2ccc(C(=O)OC)cc2)cc1	0.3	6.5	-2	-0.1	24	-0.3	-16	.

Source: PubChem

Not a hit list; any-hit rate near 4.3%.
